Beta2AR agonist = beta2AR agonists driving receptor internalization, primary screen, cell-based, FAP fluorogen, flow cytometry; AID 504454, 2011; 340,000 compounds, 0.43% hits; Beta-2 adrenergic receptor (Homo sapiens), P07550; response, % (concentration not given with the values); Am2.2-beta2AR cells; reference of the scale not given here;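 active means response above a set limit, near 3 SD of response in nonfluorescent compounds, cut at about 42% in these data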;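 further: stock transfer was 100 nL into about 11 µL; a reference agonist was the positive control; negative values mostly stem from fluorescent compounds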
Target sequence (P07550 whole entry, looked up): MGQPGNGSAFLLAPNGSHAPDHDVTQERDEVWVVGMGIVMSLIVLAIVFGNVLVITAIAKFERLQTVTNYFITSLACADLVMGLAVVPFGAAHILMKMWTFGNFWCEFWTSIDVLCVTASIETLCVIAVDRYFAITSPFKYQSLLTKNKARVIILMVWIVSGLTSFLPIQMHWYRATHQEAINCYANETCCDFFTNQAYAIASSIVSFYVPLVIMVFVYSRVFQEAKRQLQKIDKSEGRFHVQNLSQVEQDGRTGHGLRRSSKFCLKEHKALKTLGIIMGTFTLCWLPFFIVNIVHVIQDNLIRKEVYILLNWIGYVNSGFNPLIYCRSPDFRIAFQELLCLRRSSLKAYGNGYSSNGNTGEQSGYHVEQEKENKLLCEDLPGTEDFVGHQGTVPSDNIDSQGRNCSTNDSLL
rRNA inh HTS = reduced GFP signal of wild-type E. coli, primary screen, bacterial rRNA inhibitor project, GFP/RFP fluorescence, OD600, single point. 350,000 compounds, 1.6% hits. GFP signal change (wild-type ribosome), % (concentration not given with the values). E. coli WT GFP vs humanized-ribosome RFP mutants, 24 h; hits give low values; DMSO median 0, no signal -100;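 active means significant combined selectivity score with lowered wild-type GFP, culture density cut under 30%, mutant RFP and density less affected; inactive means any of these conditions unmet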; further: one replicate is shown; some compounds called inactive have numbers as strong as hits
LANA-H2B inh = blockers of LANA interaction with H2A/H2B – biochemical, FP readout, HTS, primary screen | Protein LANA1 (Human herpesvirus 8 type P (isolate GK18)), Q9QR71 | cell-free LANA-H2A/H2B peptide, fluorescence polarization | inhibition, % (concentration not given with the values) | 320,000 compounds, 0.6% hits; in the data active means inhibition mostly above about 10%, no sharp cut-off; inactive means mostly below about 6.7%;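 further: stock transfer was 7.5 nL into about 10 µL; 0% = median of vehicle wells and 100% = median of positive control wells; one replicate is shown; the record names a cut of 25% in any replicate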
ALR H2O2 inh = inhibitors of human ALR sulfhydryl oxidase, primary screen, biochemical, H2O2 detection, HRP-luminol luminescence, single point. FAD-linked sulfhydryl oxidase ALR (Homo sapiens), P55789. 290,000 compounds, 3.8% hits. purified ALR, DTT oxidation. inhibition, % (test concentration not listed);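 active means mean and each replicate at 75% or more; inconclusive means only one of the two met; inactive means neither met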;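 further: stock transfer was 7.5 nL into about 7.5 µL; 0% = neutral wells and 100% = wells with inactivated enzyme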
Target sequence (P55789 whole entry, looked up): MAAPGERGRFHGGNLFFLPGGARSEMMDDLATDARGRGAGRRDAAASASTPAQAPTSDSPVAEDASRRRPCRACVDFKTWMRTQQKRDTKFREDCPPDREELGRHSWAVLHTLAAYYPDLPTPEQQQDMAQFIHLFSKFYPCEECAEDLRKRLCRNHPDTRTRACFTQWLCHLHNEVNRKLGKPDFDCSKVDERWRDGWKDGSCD
A1 inh = caspase 3/7 activation in MEF A1-2A-BIM cells, primary screen, A1 inhibitor project, cell-based, luminescence, HTS | Caspase-Glo 3/7 luminescence, 3 h; percent of clofoctol response, vehicle zero | caspase activation, % (concentration not given with the values) | 330,000 compounds, 0.066% hits | AID 2462, 2010;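 active means over half of replicate activation scores above 10%, or exactly half above 10 with the replicate mean above 10; inconclusive means replicate mean below 10 yet half the replicates above 10; inactive means over half of replicates below 10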;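 further: wells of about 30 µL received 50 nL stock; many hits fall short of the cut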
Calb FLC = C. albicans growth inhibition with fluconazole, primary screen, CaCi-2 strain, Alamar Blue fluorescence | growth inhibition, % (no concentration beside the values) | C. albicans CaCi-2 (fluconazole-resistant clinical isolate) + fluconazole, 48 h | 300,000 compounds, 0.57% hits | AID 1979, 2009;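 active means most replicates above 75%; inconclusive means exactly half above 75%; inactive means most below 75%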;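 further: all wells also contain fluconazole at 8 µg/ml as a sub-toxic cotreatment; 0% = median of DMSO wells and 100% = median of geldanamycin control wells; wells of about 8 µL received 7.5 nL stock; the first replicate is given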
T cruzi inh = inhibitors of intracellular T. cruzi growth, primary screen, luminescence, NIH3T3 host cells | T. cruzi beta-gal in NIH3T3, 90 h | inhibition, % (test concentration not listed) | 300,000 compounds, 1.4% hits;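 active means mean inhibition across valid replicates above about 55%, limit read from the data; inconclusive means mean below that limit but half or more replicates reach it; inactive means mean below it, under half of replicates reach it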;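 further: signal also drops with host cell toxicity which is not excluded here; 0% = plate median of DMSO wells and 100% = zero luminescence signal; higher percent means less beta-gal luminescence so fewer parasites; stock transfer was 50 nL into about 50 µL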
Beta apoptosis = inhibitors of cytokine-induced beta cell apoptosis, primary screen, luminescence | INS-1E cytokine-induced death, ATP luminescence, 48 h; percent of positive-control rescue, neutral wells zero | protection from apoptosis, % (concentration not given with the values) | 300,000 compounds, 0.8% hits | AID 435005, 2010;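 active means all replicates at 75% or more, or half of them and the mean; inconclusive means half reach 75% but not the mean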;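 further: 0% = cytokine-treated negative control wells and 100% = positive control rescue; higher means more ATP so stronger rescue from cytokine killing; wells of about 40 µL received 100 nL stock; the first replicate is given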
rRNA inh HTS OD600 = second read-out of rRNA inh HTS, no call of its own (marks repeat the call); OD600 change, %; measured here: OD600 growth;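 optical density of the mix in the first replicate; 0 = DMSO median and -100 = no signal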
rRNA inh HTS RFP = recorded beside rRNA inh HTS, whose call it bears; RFP signal change, %; measured here: RFP humanized mutant strains;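 first replicate; 0 = DMSO median and -100 = no signal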
An asterisk follows results filed as active; ? = inconclusive; . = no result given.

SMILES | Beta2AR agonist | rRNA inh HTS | rRNA inh HTS OD600 | rRNA inh HTS RFP | LANA-H2B inh | ALR H2O2 inh | A1 inh | Calb FLC | T cruzi inh | Beta apoptosis
Cc1ccc(O)c(C=Nc2cc(C)ccc2O)c1 | 13 | . | . | . | . | . | 0.0 | 14 | 1 | -5
CCCCSc1nnc(-c2ccc(C)cc2)n1C | 1 | . | . | . | -1.1 | 0 | 1.0 | -1 | -1 | 12
CC(C)(C)OC(=O)N1Cc2cc3ccccc3nc2C1CO (configuration not stated) | -3 | 5 | 3 | -1.3 | 0.5 | -26 | -0.3 | . | -5 | -8
O=C(NCCc1ccccc1Cl)C1CCC(=O)N(Cc2ccc(Cl)cc2)C1 (configuration not stated) | -4 | -22 | -52 | 13 | 0.0 | -18 | -0.6 | 1 | 6 | 0
O=C(CCc1ccccc1)c1c(O)cc(O)cc1O | -3 | . | . | . | -6.5 | 17 | -2.1 | -13 | 10 | .
CC1(OC(=O)c2ccc(Cl)nc2)C(=O)C=C2C=C(c3ccsc3)OC=C2C1=O (configuration not stated) | . | . | . | . | 2.3 | -12 | -0.6 | -3 | -13 | -15
CC(C(=O)Nc1ccccc1)N1C(=O)c2ccccc2C1=O (configuration not stated) | 4 | 20 | 15 | -0.1 | 1.9 | 2 | 0.6 | 8 | 1 | -5
COc1ccc(C(=O)Cn2cnc3ccc(Cl)cc3c2=O)cc1F | 34 | 2 | 5 | 2.8 | 4.8 | . | 0.5 | 5 | 3 | -3
O=C(O)Cn1ccc2ccccc21 | 4 | 4 | 5 | 2.1 | 0.6 | . | 1.6 | 6 | 8 | 8
O=C(Cn1c(NCCCO)nc2ccccc21)c1ccc(Br)cc1 | 1 | . | . | . | 4.6 | -3 | 0.3 | 37 | -9 | 5
Cc1ccc(C(=O)N2CCN(c3ccc([N+](=O)[O-])c(NCc4ccco4)c3)CC2)cc1 | 18 | . | . | . | 1.7 | -2 | -0.6 | 25 | 40 | 10
Cc1ccc(-c2nnc(N3CCCCC3)c3ccccc23)cc1S(=O)(=O)N1CCN(C)CC1 | -1 | . | . | . | 7.4 | -52 | 0.8 | -1 | 18 | 8
COc1ccc(C2CC(=O)c3cnc(N4CCN(Cc5ccccc5)CC4)nc3C2)cc1 (configuration not stated) | -1 | . | . | . | 0.5 | -5 | -0.2 | 42 | 37 | 5
N#CC1=C(c2ccccc2)/C(=C/c2ccccc2)OC1=O | 36 | . | . | . | 2.1 | -3 | -1.6 | ? | 2 | 1
O=C(O)C1CCCN1S(=O)(=O)c1ccc(Cl)c(Cl)c1 (configuration not stated) | 0 | -5 | -2 | -1.8 | -1.4 | -2 | -0.4 | -11 | -11 | -10
CC(C)CC(=O)NN1CCCCC1 | 3 | . | . | . | 0.4 | 1 | 0.4 | -24 | -7 | -4
COc1ccc(-n2c(SCC(=O)Nc3ccc(Br)cc3)nc(O)cc2=O)cc1 | 2 | 16 | 4 | 1.6 | -1.6 | 99* | 0.5 | 17 | -18 | 3
COc1ccc(Br)cc1/C=C/C(=O)c1ccc(NC(C)=O)cc1 | -11 | -51 | -74 | -27 | 1.7 | . | -0.7 | . | . | -13
CC(=O)N1CCC(C(=O)Nc2ccc(S(=O)(=O)N3CCC(C)CC3)cc2)CC1 | -5 | 6 | 12 | 1.4 | -0.4 | -6 | -0.1 | -2 | 4 | 1
CCNC(=O)c1ccccc1SCc1ccccc1 | 2 | 3 | 2 | -1.1 | -4.4 | -16 | 0.9 | 7 | -4 | -3
Cc1cccc(C)c1NS(=O)(=O)c1ccc2c(c1)NC(=O)CO2 | 5 | 1 | -2 | -0.6 | 4.0 | -8 | 0.0 | ? | 8 | -3
CCOc1ccccc1NC(=O)NNS(=O)(=O)c1cc(C)ccc1C | -9 | -21 | -19 | -4.8 | -1.6 | 28 | 1.0 | 14 | -20 | -6
C=CCn1c2ccccc2n2nc(C)c(=O)nc12 | 1 | . | . | . | 4.5 | 0 | -0.5 | -4 | 13 | -5
Cc1cc(C)n(-c2ccc(Oc3ccccc3)c(S(=O)(=O)O)c2)n1 | -1 | 16 | 16 | -3.5 | 4.4 | 8 | 0.9 | -4 | -9 | -16
OC1OC[C@@H](O)[C@H](O)[C@H]1O (some centres not stated) | . | . | . | . | 9.9 | -27 | 0.3 | -5 | -5 | 1
COc1cccc(NC(=O)CSc2nnc(Cc3cccn3C)n2-c2ccc(F)cc2)c1 | -9 | 8 | 11 | -0.3 | 1.2 | 7 | 0.9 | -3 | -6 | 7
COc1cc(OC)cc(C(=O)N[C@H](C(=O)Nc2ccc(NC(C)=O)cc2)C(C)C)c1 | -2 | 18 | 6 | 1.6 | 3.4 | 1 | 0.5 | 3 | -8 | 2
COc1cccc2cc(C(=O)n3ccc(C)n3)c(=O)oc12 | 5 | . | . | . | -0.6 | -3 | -0.3 | -1 | -5 | -2
Cc1c(Cl)c(C(=O)Nc2nc3ccccc3n2CCN2CCCCC2)nn1C | . | . | . | . | 4.1 | 25 | -0.1 | 0 | -8 | -2
Cc1ccc(S(=O)(=O)N2CCC(C(=O)OCC(=O)N3CC(C)CC(C)C3)CC2)cc1C (configuration not stated) | 4 | -6 | -24 | -1.0 | 1.5 | -6 | -0.2 | -20 | 0 | 2
Cc1ccc(NC(=O)CN2CCC(Cc3ccccc3)CC2)cc1S(=O)(=O)N(C)C | -65 | -38 | -54 | 18 | 2.1 | -6 | 0.3 | -6 | 53 | -3
CN(CCC#N)C(=O)CSc1ncnc2sc(-c3ccccc3)cc12 | -22 | . | . | . | 3.1 | 10 | -0.1 | -20 | 9 | -5
COC(=O)Cc1c(O)ccn(CCc2c[nH]c3ccc(OC)cc23)c1=O | 0 | 0 | 12 | 1.5 | -4.2 | 2 | -2.3 | 6 | -4 | -2
CC(=O)Oc1ccc(C(=O)Nc2cc(C)ccc2NC(=O)COc2ccccc2)cc1 | -3 | 17 | 3 | 2.1 | 1.8 | 5 | 0.1 | -25 | -22 | -2
Cc1ccc(Cc2c(C)nc3nc(SCC(=O)NCc4ccco4)nn3c2C)cc1 | 14 | . | . | . | -1.0 | 8 | -1.1 | 3 | -13 | .
OCc1nc2ccccc2n1CCCOc1ccc(Br)cc1 | 3 | . | . | . | -0.4 | -4 | -0.4 | 25 | . | -5
Cc1ccc(-n2c(=O)[nH]c3ncccc3c2=O)cc1 | 7 | 17 | 4 | 0.7 | -0.8 | -15 | 1.3 | 25 | -4 | .
O=C(CCNC(=O)c1ccc(Cl)cc1)NCCCN1CCOCC1 | -3 | 4 | 11 | -0.1 | 0.8 | . | 1.6 | . | . | -3
COc1ccc(/C=N\NC(=O)c2ccc(-c3ccccc3)cc2)cc1COC(C)=O | 0 | -25* | 15* | 9.7* | 2.5 | -1 | 0.1 | -7 | 12 | -4
O=C(COc1ccc2c3c(c(=O)oc2c1)CCCC3)N1C[C@H]2C[C@@H](C1)c1cccc(=O)n1C2 | -20 | . | . | . | -3.1 | -3 | 1.5 | 0 | -2 | -4
Cc1ccc(C)c(Cn2nnc3c(=O)[nH]c(C4CCCN(C(=O)C5CCC5)C4)nc32)c1 (configuration not stated) | -3 | -17 | -35 | 24 | 3.5 | -19 | 0.4 | 15 | 10 | 2
CC(/C=C/c1ccccc1)=N\NC(=O)CSc1ccccn1 | -3 | -11 | -3 | 0.8 | 1.4 | -8 | 0.1 | -14 | -8 | 4
CC1O[C@H](OC2C(COC3OC(CO)C(O)[C@H](O)C3O)OC(OC3CC[C@]4(C)C(CC[C@@]5(C)[C@@H]4C=C[C@]46OC[C@@]7(CCC(C)(C)C[C@H]74)C(O)C[C@@]56C)C3(C)C)C(O)C2O)C(O)C(O)C1O (some centres not stated) | 9 | 6 | -3 | 0.9 | -2.3 | -4 | -0.3 | . | . | -7
COc1ccccc1CCNC(=O)C(=O)NCC1OCCN1C(=O)c1ccc(Cl)cc1 (configuration not stated) | -8 | 7 | 8 | 1.8 | -9.8 | 0 | -0.1 | 1 | 8 | 5
Cc1ccc(-n2nc(C)c(Sc3ccccc3[N+](=O)[O-])c2N)cc1 | 3 | -42* | -23* | -8.7* | -0.2 | 87* | 0.2 | 21 | 16 | -13
CCOc1ccc(C(=O)NCC(=O)NNC(=O)CN(C)S(=O)(=O)c2ccc(Cl)cc2)cc1 | -3 | 16 | 8 | 0.9 | 1.7 | . | 0.4 | 4 | -6 | -4
Cc1ccc(O)c(NC2=C(Cl)C(=O)N(Cc3ccccc3)C2=O)c1 | -18 | -19 | -11 | 16 | . | . | . | 35 | 58* | .
CC(=O)Nc1ccc(NC(=S)NC(=O)/C=C/c2ccc(Cl)cc2)cc1 | -10 | 7 | 8 | 1.1 | -3.9 | -3 | -1.2 | 2 | -106 | 6
Cc1nc(SCC(=O)NCCc2ccccc2)c2oc3ccccc3c2n1 | -11 | . | . | . | 2.3 | -7 | -0.2 | -2 | 4 | 5
CCOc1ccc(Br)cc1S(=O)(=O)Nc1ccc(NC(=O)c2ccccc2C)cc1 | 2 | 1 | 7 | 0.8 | 5.1 | 1 | 0.7 | -6 | 36 | 3

Other results follow:
SMILES | Beta2AR agonist | rRNA inh HTS | rRNA inh HTS OD600 | rRNA inh HTS RFP | LANA-H2B inh | ALR H2O2 inh | A1 inh | Calb FLC | T cruzi inh | Beta apoptosis
O=C(Nc1ccnn1C1CCN(Cc2ccccc2OCCO)CC1)c1cccc(F)c1 | -7 | 16 | 15 | -0.8 | -3.6 | -2 | 0.8 | -19 | 18 | 2
CC(C)(C)c1ccc(SCCc2ccncc2)cc1 | -4 | -52 | -76 | -14 | 0.3 | -2 | -0.7 | -3 | 32 | 30
CCOC(=O)Cc1csc(SCC(=O)Nc2nccs2)n1 | 5 | 7 | 5 | -0.3 | -0.2 | -7 | 0.8 | . | -10 | 0
COc1ccc(Nc2nc(C)nc3c2nnn3Cc2ccccc2)cc1OC | 0 | . | . | . | 7.1 | -3 | 0.0 | -1 | 11 | 6
COc1ccc(NC(=O)C2CCN(C(=O)c3ccccc3)CC2)c(OC)c1 | -9 | -20 | -10 | 11 | 7.7 | -6 | 0.4 | . | . | 5
COc1ccc(-c2cc(C(=O)NCc3cccnc3)no2)cc1 | 2 | . | . | . | 2.9 | 1 | -3.3 | 44 | -2 | 21

This is a subset, so the mix of outcomes need not match the whole.
